FGF22 binding: binders of human FGF22 protein, primary screen, FGF22 synaptogenesis inhibitor project, biophysical, thermal shift, single point; Fibroblast growth factor 22 (Homo sapiens), Q9HCT0; recombinant FGF22 thermal shift, SYPRO orange fluorescence; percent of sucrose octasulfate shift, DMSO zero; calls only at 9.99 µM; 340,000 tested, 1.5% active; AID 651658, 2012;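 active = melting point raised past a set limit in the mean and every replicate; inconclusive = no clear call; three in four hits are not shown here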
HNF4A DNA FP: change in binding of human HNF4A to DNA, primary screen, biochemical, fluorescence polarization, FITC-DNA. Hepatocyte nuclear factor 4-alpha (Homo sapiens), P41235. 1 h. activity change, % at 10 µM. 360,000 tested, 0.3% active. AID 1224865, 2016; in the data active = activity change above about 30%, passing the limit was not always enough;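 also: controls were the assay level and a saturating level of protein; the project sought stronger binding though the title names inhibitors; some compounds called inactive have numbers as strong as hits; positive values seem to mean higher polarization but the record does not say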
Target sequence (P41235 whole entry, looked up): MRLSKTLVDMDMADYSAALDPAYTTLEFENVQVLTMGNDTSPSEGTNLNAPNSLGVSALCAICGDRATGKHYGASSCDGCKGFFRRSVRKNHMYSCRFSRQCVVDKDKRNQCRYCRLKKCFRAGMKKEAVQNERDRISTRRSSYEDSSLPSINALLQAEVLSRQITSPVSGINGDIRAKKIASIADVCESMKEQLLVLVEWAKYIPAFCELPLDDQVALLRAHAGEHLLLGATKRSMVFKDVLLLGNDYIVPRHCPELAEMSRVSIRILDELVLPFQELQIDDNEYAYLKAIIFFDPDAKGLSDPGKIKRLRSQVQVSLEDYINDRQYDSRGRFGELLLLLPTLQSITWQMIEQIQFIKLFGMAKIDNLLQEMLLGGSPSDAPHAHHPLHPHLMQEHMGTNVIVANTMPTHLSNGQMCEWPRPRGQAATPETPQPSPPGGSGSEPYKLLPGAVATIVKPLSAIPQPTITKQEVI
Ecoli rRNA inh: reduced GFP signal of wild-type E. coli, primary screen, bacterial rRNA inhibitor project, GFP/RFP fluorescence, OD600, single point. E. coli WT GFP vs humanized-ribosome RFP mutants, 24 h; hits give low values; DMSO median 0, no signal -100. 350,000 tested, 1.6% active. GFP signal change (wild-type ribosome), % (concentration not given with the values);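 active = significant combined selectivity score with lowered wild-type GFP, culture density cut under 30%, mutant RFP and density less affected; inactive = any of these conditions unmet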; also: one replicate is shown; some compounds called inactive have numbers as strong as hits
E coli growth: E. coli growth inhibition, primary screen, OD600. OD600 absorbance (test concentration not listed). Escherichia coli growth, 23 h; hits give low values. AID 1053175, 2014. 330,000 tested, 0.21% active;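 active = OD600 absorbance below the run mean of sample wells minus 3.6 SD, in any replicate, cut at about 0.56 in these data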;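 also: stock transfer was 300 nL into about 60 µL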
MLL AF4-AF9 inh: inhibitors of AF4 peptide binding to AF9, primary screen, biochemical, AlphaScreen, biotin-AF4 peptide, FLAG-AF9, single point. inhibition, % at 10 µM. 350,000 tested, 0.47% active. AID 651704, 2012;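 active = every replicate reaching a set inhibition limit, whatever the replicate mean, cut at about 25% in these data; inconclusive = mean inhibition reaches that limit but some replicates miss it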;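 also: 0% = plate neutral control median and 100% = total signal loss; the record names both 10 and 1 µM as test concentration; the first replicate is given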
Target sequence (P42568 whole entry, looked up): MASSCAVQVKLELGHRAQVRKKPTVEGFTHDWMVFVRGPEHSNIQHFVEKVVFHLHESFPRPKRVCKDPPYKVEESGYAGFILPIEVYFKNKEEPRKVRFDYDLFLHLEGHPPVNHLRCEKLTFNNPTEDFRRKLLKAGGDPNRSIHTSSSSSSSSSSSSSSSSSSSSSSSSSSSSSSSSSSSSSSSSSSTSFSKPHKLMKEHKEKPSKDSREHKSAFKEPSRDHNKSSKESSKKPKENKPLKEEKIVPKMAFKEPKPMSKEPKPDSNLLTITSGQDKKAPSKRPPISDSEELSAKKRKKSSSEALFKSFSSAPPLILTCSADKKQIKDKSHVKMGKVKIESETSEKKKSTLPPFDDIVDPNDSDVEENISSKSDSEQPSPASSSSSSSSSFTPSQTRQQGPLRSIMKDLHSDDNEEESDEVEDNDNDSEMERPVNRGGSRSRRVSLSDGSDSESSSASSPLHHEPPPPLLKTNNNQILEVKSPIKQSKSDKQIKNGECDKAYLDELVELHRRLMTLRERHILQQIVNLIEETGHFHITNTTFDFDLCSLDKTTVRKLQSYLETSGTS
ALR inh: inhibitors of human ALR sulfhydryl oxidase, primary screen, biochemical, H2O2 detection, HRP-luminol luminescence, single point. inhibition, % (no concentration beside the values). purified ALR, DTT oxidation. 290,000 tested, 3.8% active. FAD-linked sulfhydryl oxidase ALR (Homo sapiens), P55789;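 active = mean and each replicate at 75% or more; inconclusive = only one of the two met; inactive = neither met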;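 also: stock transfer was 7.5 nL into about 7.5 µL; 0% = neutral wells and 100% = wells with inactivated enzyme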
Vif A3G: inhibitors of Vif binding to APOBEC3G peptide, primary screen, biochemical, TR-FRET, GST-Vif 1-94, biotin-A3G peptide, dose response retest (AID 1117319). one-dose inhibition, %; IC50 in µM for titrated hits. Virion infectivity factor (Human immunodeficiency virus type 1 group M subtype B (isolate …. TR-FRET GST-Vif / biotin-A3G peptide binding; higher % means a stronger effect; test concentration not given here; strong numbers were not always called active. 260,000 tested, 0.57% active;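 active = above the screen mean plus three standard deviations and confirmed in dose response; inconclusive = results disagree or hit not tested in dose response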;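 also: Vif residues 1-94 fused to GST binding biotinylated APOBEC3G peptide 110-148; 0% = full assay without inhibitor and 100% = GST in place of GST-Vif; retest series ran down from 100 µM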
Ecoli rRNA inh OD600: recorded beside Ecoli rRNA inh, whose call it bears; OD600 change, %; measured here: OD600 growth;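 optical density of the mix in the first replicate; 0 = DMSO median and -100 = no signal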
Ecoli rRNA inh RFP: recorded beside Ecoli rRNA inh, whose call it bears; RFP signal change, %; measured here: RFP humanized mutant strains;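 first replicate; 0 = DMSO median and -100 = no signal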
Numbers without * were called inactive. This is a subset; rates above refer to the full screens.

Results for CC1CCN(C(=O)c2ccc(N3CCOCC3)c([N+](=O)[O-])c2)CC1 ?
FGF22 binding: inactive; HNF4A DNA FP: -0.3; Ecoli rRNA inh: 4.6; E coli growth: 0.689; MLL AF4-AF9 inh: -2.7; ALR inh: 2.2; Ecoli rRNA inh OD600: -1.4; Ecoli rRNA inh RFP: 0.3

How did CCN(CC)S(=O)(=O)c1ccc(N2CCCC2)c(NC(=O)Cc2cc(OC)c(OC)c(OC)c2)c1 do in these assays?
FGF22 binding: inactive; HNF4A DNA FP: 0.0; Ecoli rRNA inh: 4.0; E coli growth: 0.7; MLL AF4-AF9 inh: 3.3; ALR inh: -8.0; Ecoli rRNA inh OD600: 8.8; Ecoli rRNA inh RFP: 1.0

Results for CCc1ccccc1NC(=O)N[C@@H](C)C(=O)O ?
HNF4A DNA FP: 1.3; E coli growth: 0.663; ALR inh: 2.8; Vif A3G: 7.0%

What do the screens show for `O=C(CN1CCN(C(=O)C2CC2)CC1)Nc1cc(C(F)(F)F)cc(C(F)(F)F)c1`?
FGF22 binding: inactive; HNF4A DNA FP: -4.2; Ecoli rRNA inh: -2.9; E coli growth: 0.674; MLL AF4-AF9 inh: -0.2; ALR inh: -1.5; Vif A3G: 3.0%; Ecoli rRNA inh OD600: -40.2; Ecoli rRNA inh RFP: -4.2

How did Cc1cc2nc(-c3ccc[nH]c3=O)[nH]c2cc1C do in these assays?
FGF22 binding: inactive; HNF4A DNA FP: -0.5; Ecoli rRNA inh: -4.5; E coli growth: 0.588; MLL AF4-AF9 inh: -3.2; ALR inh: 28.0; Ecoli rRNA inh OD600: 5.7; Ecoli rRNA inh RFP: 2.6

Results for Nc1cc(S(=O)(=O)Nc2ccc(Cl)cc2)ccc1N1CCOCC1 ?
FGF22 binding: inactive; HNF4A DNA FP: 1.7; Ecoli rRNA inh: -6.1; E coli growth: 0.701; MLL AF4-AF9 inh: 3.6; ALR inh: 39.4; Vif A3G: 0.8%; Ecoli rRNA inh OD600: -8.7; Ecoli rRNA inh RFP: 0.0

Results for C/C=C/c1cnc2c(c1)C(=O)N([C@H](C)CO)C[C@@H](C)[C@H](CN(C)C(=O)C1CCCCC1)O2 ?
FGF22 binding: inactive; Ecoli rRNA inh: -7.1; MLL AF4-AF9 inh: 4.6; Ecoli rRNA inh OD600: -11.8; Ecoli rRNA inh RFP: -3.0

What do the screens show for `COc1ccc(-c2ccccc2[C@H]2[C@@H]3C=CC[C@@H](C)[C@@H]3C(=O)N2Cc2ccccc2)cc1`?
FGF22 binding: inactive; HNF4A DNA FP: -1.2; Ecoli rRNA inh: -1.4; E coli growth: 0.731; MLL AF4-AF9 inh: -0.1; Vif A3G: 2.8%; Ecoli rRNA inh OD600: 7.8; Ecoli rRNA inh RFP: -0.2

What do the screens show for `O=C1[C@H]2[C@@H](c3ccc(F)cc3)N3C(=O)N(c4ccccc4)C(=O)[C@@]3(Cc3ccccc3)[C@H]2C(=O)N1C1CCCCC1`?
FGF22 binding: inactive; HNF4A DNA FP: -0.7; Ecoli rRNA inh: 10.8; MLL AF4-AF9 inh: 3.0; ALR inh: -5.2; Ecoli rRNA inh OD600: 11.9; Ecoli rRNA inh RFP: 8.6

How did COc1ccccc1NC(=S)NCCSc1ccc(C)cc1 do in these assays?
HNF4A DNA FP: 2.0; ALR inh: -25.1; Vif A3G: 9.9%

Results for O=C(CCS(=O)(=O)Cc1ccccc1F)NCc1ccccc1Cl ?
FGF22 binding: inactive; HNF4A DNA FP: 3.1; Ecoli rRNA inh: 11.4; E coli growth: 0.676; MLL AF4-AF9 inh: 0.1; ALR inh: -3.8; Vif A3G: inconclusive; Ecoli rRNA inh OD600: 8.1; Ecoli rRNA inh RFP: 2.1

What do the screens show for `CCN1CCN(C(=O)C2CCCN(c3ncnc4c3nc3n4CCCCC3)C2)CC1` (centres undefined)?
FGF22 binding: inactive; HNF4A DNA FP: 1.6; Ecoli rRNA inh: 4.4; E coli growth: 0.609; MLL AF4-AF9 inh: -1.8; ALR inh: 0.7; Vif A3G: -0.3%; Ecoli rRNA inh OD600: -0.2; Ecoli rRNA inh RFP: -0.8

How did O=C(/C=C/c1ccc([N+](=O)[O-])cc1)Oc1ccc(/C=N/NC(=O)c2ccncc2)cc1 do in these assays?
FGF22 binding: inactive; HNF4A DNA FP: -9.6; Ecoli rRNA inh: 8.8; MLL AF4-AF9 inh: -2.2; ALR inh: 26.8; Ecoli rRNA inh OD600: 6.2; Ecoli rRNA inh RFP: 0.0

Results for O=C(Oc1ccc(-c2cnc3ccccc3n2)cc1)c1ccc(Cl)c([N+](=O)[O-])c1 ?
HNF4A DNA FP: -1.9; E coli growth: 0.735; ALR inh: -5.3; Vif A3G: -0.6%

Results for Cc1cc(C)c(C#N)c(SCC(=O)C2CC2)n1 ?
FGF22 binding: inactive; HNF4A DNA FP: 4.9; Ecoli rRNA inh: 0.2; E coli growth: 0.603; MLL AF4-AF9 inh: 0.5; ALR inh: -7.1; Vif A3G: -3.2%; Ecoli rRNA inh OD600: 11.2; Ecoli rRNA inh RFP: -2.3

Results for CO[C@@H](CN(C)C(=O)c1ccccc1F)[C@@H](C)CN([C@@H](C)CO)S(=O)(=O)c1ccc(C)cc1 ?
FGF22 binding: inactive; Ecoli rRNA inh: 1.1; MLL AF4-AF9 inh: -3.2; Ecoli rRNA inh OD600: -10.0; Ecoli rRNA inh RFP: -2.2

What do the screens show for `O=C(Nc1ccc(CN2CCOCC2)cc1)c1ccc(N2CCCC2)c([N+](=O)[O-])c1`?
FGF22 binding: inactive; HNF4A DNA FP: -4.9; Ecoli rRNA inh: -28.5; E coli growth: 0.623; MLL AF4-AF9 inh: -2.0; ALR inh: 2.7; Vif A3G: -7.8%; Ecoli rRNA inh OD600: -24.0; Ecoli rRNA inh RFP: -5.0

How did [O-][n+]1c2c(nn1-c1ccc(Cl)c(Cl)c1)-c1nonc1CC2 do in these assays?
FGF22 binding: inactive; HNF4A DNA FP: 1.1; Ecoli rRNA inh: 12.8; E coli growth: 0.692; MLL AF4-AF9 inh: 3.1; ALR inh: -9.6; Ecoli rRNA inh OD600: 10.5; Ecoli rRNA inh RFP: -0.3

What do the screens show for `CN(C)c1ccc(CN2CCC(C(=O)NC(c3ccc(Cl)cc3)c3cnccn3)CC2)cc1` (centres undefined)?
FGF22 binding: inactive; HNF4A DNA FP: -0.4; Ecoli rRNA inh: 10.1; MLL AF4-AF9 inh: 8.5; Ecoli rRNA inh OD600: 10.5; Ecoli rRNA inh RFP: -1.8

Results for COCCNc1nc(-c2cc(F)ccc2C)c2sc(-c3ccccc3)cc2n1 ?
FGF22 binding: inactive; HNF4A DNA FP: 0.3; Ecoli rRNA inh: 9.1; MLL AF4-AF9 inh: 0.5; Ecoli rRNA inh OD600: 12.7; Ecoli rRNA inh RFP: 2.2

How did Cc1cc(C)cc(NC(=O)CN2C(=O)NC(Cc3c[nH]c4ccccc34)C2=O)c1 (centres undefined) do in these assays?
FGF22 binding: active; HNF4A DNA FP: 0.5; Ecoli rRNA inh: 3.0; E coli growth: 0.651; MLL AF4-AF9 inh: -0.7; ALR inh: 1.1; Ecoli rRNA inh OD600: -23.5; Ecoli rRNA inh RFP: 2.6

Results for COC(=O)c1ccc(NC(=O)CCS(=O)(=O)c2ccc3c(c2)NC(=O)C(C)S3)cc1 (centres undefined) ?
FGF22 binding: inactive; HNF4A DNA FP: 2.2; Ecoli rRNA inh: -18.5; E coli growth: 0.71; MLL AF4-AF9 inh: 2.3; ALR inh: 0.6; Vif A3G: 8.6%; Ecoli rRNA inh OD600: -19.6; Ecoli rRNA inh RFP: -4.2

Results for CCCNC(=O)Nc1ccc2c(c1)C(=O)N(C)C[C@H](OC)[C@H](C)CN(Cc1cccnc1)[C@@H](C)CO2 ?
FGF22 binding: inactive; Ecoli rRNA inh: -0.9; MLL AF4-AF9 inh: -2.3; Ecoli rRNA inh OD600: 0.8; Ecoli rRNA inh RFP: 0.9

How did Nc1ccccc1C#Cc1ccccc1 do in these assays?
FGF22 binding: inactive; HNF4A DNA FP: -0.7; Ecoli rRNA inh: 3.9; E coli growth: 0.672; MLL AF4-AF9 inh: 0.2; ALR inh: 5.1; Vif A3G: -5.6%; Ecoli rRNA inh OD600: -0.5; Ecoli rRNA inh RFP: -3.5

How did CCCn1ncc(CN2CCC(CO)(CC3CCCCO3)CC2)c1C (centres undefined) do in these assays?
HNF4A DNA FP: -1.9; Ecoli rRNA inh: 8.6; E coli growth: 0.663; MLL AF4-AF9 inh: -0.7; ALR inh: 0.7; Vif A3G: -3.2%; Ecoli rRNA inh OD600: 7.6; Ecoli rRNA inh RFP: -0.6

How did CCN(CCO)Cc1cc(=O)oc2cc3c(cc12)CCC3 do in these assays?
FGF22 binding: inactive; HNF4A DNA FP: 2.4; Ecoli rRNA inh: -2.2; E coli growth: 0.715; MLL AF4-AF9 inh: 0.2; ALR inh: 87.2*; Vif A3G: -7.0%; Ecoli rRNA inh OD600: 0.4; Ecoli rRNA inh RFP: 4.8

How did CCN(C(=O)Cn1c(=O)oc2ccccc21)c1cccc(C(F)(F)F)c1 do in these assays?
HNF4A DNA FP: -2.5; E coli growth: 0.685; ALR inh: -7.8; Vif A3G: -2.8%

Results for C[C@H](CO)N1C[C@H](C)[C@H](CN(C)C(=O)Nc2cccc3ccccc23)Oc2ncc(/C=C/c3ccccc3)cc2C1=O ?
FGF22 binding: inactive; Ecoli rRNA inh: -4.9; MLL AF4-AF9 inh: 7.3; Ecoli rRNA inh OD600: -6.8; Ecoli rRNA inh RFP: 9.3

What do the screens show for `O=C(C[C@@H]1C[C@H]2c3cc(NC(=O)Nc4ccccc4)ccc3O[C@H]2[C@@H](CO)O1)NCC1CC1`?
FGF22 binding: inactive; Ecoli rRNA inh: 0.5; MLL AF4-AF9 inh: -3.4; Ecoli rRNA inh OD600: -4.5; Ecoli rRNA inh RFP: -0.6

Results for CC(C)(C)C(=O)Nc1nc(C2CCCN2S(=O)(=O)c2ccc(Cl)cc2)cs1 (centres undefined) ?
HNF4A DNA FP: 0.1; E coli growth: 0.667; Vif A3G: -2.8%

Results for Cc1ccc(Cl)cc1N1CCN(C(=O)C2CCN(S(C)(=O)=O)CC2)CC1 ?
FGF22 binding: inactive; HNF4A DNA FP: -0.4; Ecoli rRNA inh: -19.6; E coli growth: 0.683; MLL AF4-AF9 inh: -0.5; ALR inh: 5.0; Vif A3G: 16.7%; Ecoli rRNA inh OD600: -17.5; Ecoli rRNA inh RFP: -1.9

How did CSc1ccccc1OCc1cc(C(=O)NCc2csc(C(C)C)n2)no1 do in these assays?
FGF22 binding: inactive; HNF4A DNA FP: 2.0; Ecoli rRNA inh: -9.5; E coli growth: 0.674; MLL AF4-AF9 inh: -2.6; ALR inh: -1.8; Ecoli rRNA inh OD600: -26.2; Ecoli rRNA inh RFP: 0.1

What do the screens show for `CC(=O)c1ccc(O)c(CC=C(C)C)c1O`?
FGF22 binding: inactive; HNF4A DNA FP: -0.4; Ecoli rRNA inh: -32.6; E coli growth: 0.725; MLL AF4-AF9 inh: -0.2; Ecoli rRNA inh OD600: -48.6; Ecoli rRNA inh RFP: -6.0

Bioassay records deposited in PubChem by several laboratories.
